CBX7 inh – blocks human CBX7 binding to H3K27me3 peptide; O95931; AlphaScreen His6-CBX7 / biotin-H3K27me3 peptide binding; hits give low values; normalised signal (fraction of DMSO) (concentration not given with the values); hit rate 1.1% among 66,000; AID 1224903; in the data active means normalised signal below about 0.5;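 further: 100 nL library stock added to about 20 µL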
Target sequence (O95931 whole entry, looked up): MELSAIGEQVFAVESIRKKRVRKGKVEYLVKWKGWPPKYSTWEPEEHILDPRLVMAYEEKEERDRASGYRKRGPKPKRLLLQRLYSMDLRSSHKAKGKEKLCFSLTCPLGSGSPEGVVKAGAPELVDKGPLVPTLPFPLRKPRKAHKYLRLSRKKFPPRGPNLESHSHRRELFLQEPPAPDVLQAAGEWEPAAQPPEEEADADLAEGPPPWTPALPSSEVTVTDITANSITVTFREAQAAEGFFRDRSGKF
CBX7 inh z-score – also measured in CBX7 inh; calls as there; z-score; measured here: z-score of CBX7 signal; some inactives read as strong as hits; reference of the scale not given here;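 same signal on another scale; lower means less binding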
* = called active by the depositor. Not all compounds are listed. The share of hits here may be higher or lower than overall.

item	SMILES	CBX7 inh	CBX7 inh z-score
1	Cc1cccc(-c2nc(CN3C(=O)C(C)N=C(c4ccccc4F)c4cc(Cl)ccc43)c(C)o2)c1 (stereo not drawn)	0.95	-1.3
2	O=C1c2ccccc2C(=O)N1Cc1nc2ccccc2c(=O)n1-c1ccccn1	0.96	-0.42
3	COc1ccc2[nH]c(C)c(CCNCc3ccc(OC(F)(F)F)cc3)c2c1	0.42*	-11*
4	Cc1cc(N2CCN(C)CC2)nc2cc(O)ccc12	0.98	-0.45
5	CC(=O)c1ccc2[nH]cc(CC(C)N)c2c1 (stereo not drawn)	1.1	1.2
6	CCC(C)C1N=C(c2ccccc2)c2cc(Cl)ccc2N(CC(=O)NCC2CCCO2)C1=O (stereo not drawn)	0.92	-0.34
7	Cc1cccc(-n2c(CSc3nc4ccccc4[nH]3)nc3ccccc3c2=O)c1C	0.86	-2.2
8	Brc1ccc(C2CC(c3cccnc3)Nc3ncnn32)cc1 (stereo not drawn)	1	0.66
9	CC(C)c1ccc(NC(=O)CN2C(=O)CN=C(c3ccccc3)c3cc(Cl)ccc32)cc1	1.1	0.88
10	O=C(Cn1c2c(c(-c3ccccc3Cl)cc1=O)CCC2)N1CCC2(CC1)OCCO2	0.9	-1.1
11	CCCCNC(=O)CN1C(=O)C(C(C)CC)N=C(c2ccccc2)c2cc(Cl)ccc21 (stereo not drawn)	0.9	-0.61
12	Cc1nc2ccccc2c(=O)n1-c1ccccc1O	1.1	0.38
13	CCc1cccc(NC(=O)CN2CC(c3ccccc3)CC2=O)c1 (stereo not drawn)	1	0.77
14	O=C(c1ccc2c(c1)N(Cc1ccccc1)CCS2)N1CCC2(CC1)OCCO2	0.84	-0.21
15	O=C(C1c2ccccc2C(=O)N2CCc3ccccc3C12)N1CCC2(CC1)OCCO2 (stereo not drawn)	0.88	-2

(list continues)
item	SMILES	CBX7 inh	CBX7 inh z-score
16	O=c1c2ccccc2nc(/C=C/c2ccccc2)n1-c1ccccc1F	1	0.78
17	CCc1nc2ccccc2c(=O)n1-c1ccc(O)cc1	0.89	-0.43
18	CCC(C(=O)Nc1cccc(Cl)c1)N1C(=O)C(C)N=C(c2ccccc2)c2ccccc21 (stereo not drawn)	1.2	1.4
19	Cc1ccccc1-n1c(/C=C/c2cn(C)c3ccccc23)nc2ccccc2c1=O	0.91	-2.3
20	CCN(CC)CCN(C)C(=O)C(O)(c1ccccc1)c1ccccc1	1.4	0.97
21	CCOc1ccc(NC(=O)CN2C(=O)C(C)N=C(c3ccccc3)c3ccccc32)cc1 (stereo not drawn)	1.2	1.7
22	O=c1c2ccccc2nc(/C=C/c2ccccc2)n1-c1cccc(C(F)(F)F)c1	1	2.1
23	CCOC(=O)c1c(C)n(Cc2ccccc2)c2ccc(OCC(O)Cn3c(C)nc4ccccc43)cc12 (stereo not drawn)	0.64	-4.1
24	Cc1ccc(S(=O)(=O)NC(Cc2cnc[nH]2)C(=O)O)cc1 (stereo not drawn)	0.95	-1.4
25	O=C(Nc1ccc(Br)cc1C(=O)c1ccccc1)c1cccc(C(F)(F)F)c1	1.1	0.32
26	COCCCn1c(-c2ccc(OC)cc2)cc(C(=O)NCc2ccccc2Cl)c1C	0.92	-2.7
27	O=C(c1ccc2c(c1)N(Cc1ccc(F)cc1)CCS2)N1CCC2(CC1)OCCO2	0.94	-1.8
28	CC1N=C(c2ccccc2)c2ccccc2N(CC(=O)Nc2ccccc2C(F)(F)F)C1=O (stereo not drawn)	1.5	3.7
29	O=C(c1csc2c1CCCCC2)N1CCC2(CC1)OCCO2	1	0.6
30	COc1ccc2c(c1OC)CN1CCc3cc4c(cc3C1C2)OCO4 (stereo not drawn)	0.91	-1.8

Exported field by field: 4 of the compounds above.
25: O=C(Nc1ccc(Br)cc1C(=O)c1ccccc1)c1cccc(C(F)(F)F)c1
  CBX7 inh: 1.1 | CBX7 inh z-score: 0.32
26: COCCCn1c(-c2ccc(OC)cc2)cc(C(=O)NCc2ccccc2Cl)c1C
  CBX7 inh: 0.92 | CBX7 inh z-score: -2.7
27: O=C(c1ccc2c(c1)N(Cc1ccc(F)cc1)CCS2)N1CCC2(CC1)OCCO2
  CBX7 inh: 0.94 | CBX7 inh z-score: -1.8
28: CC1N=C(c2ccccc2)c2ccccc2N(CC(=O)Nc2ccccc2C(F)(F)F)C1=O (stereo not drawn)
  CBX7 inh: 1.5 | CBX7 inh z-score: 3.7

Remaining list, next part.
item	SMILES	CBX7 inh	CBX7 inh z-score
31	COc1ccccc1CN1CCN(Cc2ccc(F)cc2)CC1	0.97	-0.65
32	O=C(CN1C(=O)CN=C(c2ccccc2)c2ccccc21)NCCc1ccccc1	1.5	3.6
33	O=c1c2ccccc2nc(/C=C/c2ccccc2)n1-c1cccc(Cl)c1	0.97	-1.3
34	COc1ccc(/C=C/c2nc3ccccc3c(=O)n2-c2cc(C)cc(C)c2)cc1	1	0.92
35	Cc1cccc(-n2c(/C=C/c3cccc(F)c3)nc3ccccc3c2=O)c1	1	2
36	Cc1cccc(CN2C(=O)CN=C(c3ccccc3)c3cc(Cl)ccc32)c1	1	0.89
37	Cc1ccc2c(c1)[C@@H]1CN(C)CC[C@@H]1N2C(=O)C1CCC1	0.76	-0.96
38	CCN(CC)C(=O)c1ccc(NC(=O)CCn2nc(-c3ccc(C)cc3)c3ccccc3c2=O)cc1	1	0.16
39	CCC(=O)N1CC(=O)Nc2ccc(C)cc2C1c1ccc(F)cc1 (stereo not drawn)	1	0.081
40	COc1ccc(Cl)cc1-n1c(/C=C/c2cccc(F)c2)nc2ccccc2c1=O	1	1.3
41	CCc1nc2ccccc2c(=O)n1-c1ccccc1C	1.2	2
42	Cc1[nH]c2ccccc2c1CCNCc1cccc(F)c1	0.75	-3.8
43	CCn1cc(C(=O)N2CC3CC(C2)c2cccc(=O)n2C3)c(=O)c2ccc(C)nc21 (stereo not drawn)	1.1	0.76
44	O=C(CN1C(=O)CCSc2ccccc21)N1CCC2(CC1)OCCO2	1	0.7
45	Cc1ccc(NC(=O)CN2C(=O)C(C)N=C(c3ccccc3F)c3cc(Cl)ccc32)cc1C (stereo not drawn)	0.97	-0.5

Following part.
item	SMILES	CBX7 inh	CBX7 inh z-score
46	COc1cccc(CN2CCN(Cc3ccc(F)cc3)CC2)c1	1	0.79
47	O=C(CN1C(=O)CN=C(c2ccccc2)c2cc(Cl)ccc21)NCC1CCCO1 (stereo not drawn)	0.92	-1.2
48	CCCCC(CC)Cn1c(C)c(C(=O)OCC)c2cc(O)ccc21 (stereo not drawn)	1.1	0.49
49	O=C(C1CC(c2ccc(F)cc2)=NO1)N1CCC2(CC1)OCCO2 (stereo not drawn)	1	-0.16
50	O=C(CN1C(=O)CN=C(c2ccccc2)c2cc(Cl)ccc21)Nc1ccccc1Cl	0.98	-0.42
51	CSc1ccc(CN2CCN(Cc3ccc(Br)cc3)CC2)cc1	0.86	-1.7
52	O=c1c2ccccc2nc(/C=C\c2cccc(Br)c2)n1-c1cccc(F)c1	0.97	-0.71
53	CCOc1cccc(CNCCc2c(C)[nH]c3ccc(OC)cc23)c1O	0.8	-3.1
54	CCOC(=O)c1c(C)n(Cc2ccccc2)c2ccc(OCC(O)CN3CCN(CCO)CC3)cc12 (stereo not drawn)	0.98	-0.65
55	CSc1cccc(NC(=O)CN2C(=O)CN=C(c3ccccc3)c3cc(Br)ccc32)c1	0.73	-2.1
56	O=C(Cn1cc(C(=O)c2ccccc2)c2ccccc21)NCc1ccc2c(c1)OCO2	1.2	1.8
57	Cc1[nH]c2ccc(OC(F)(F)F)cc2c1CCNCc1cccc(F)c1	0.95	-2.8
58	CCOC(=O)C1(c2ccccc2)CCN(C(=O)c2ccccc2O)CC1	0.91	-1.2
59	O=C(O)c1ccc(C2NCc3ccccc3-n3cccc32)cc1 (stereo not drawn)	1.1	1.4
60	COc1ccc(F)c(C2NCc3ccccc3-n3cccc32)c1 (stereo not drawn)	0.84	-4.8

Compound profiles, as listed above. Screens in order: CBX7 inh | CBX7 inh z-score
O=C(C1c2ccccc2C(=O)N2CCc3ccccc3C12)N1CCC2(CC1)OCCO2 (stereo not drawn) across the screens: 0.88 | -2
O=C(C1CC(c2ccc(F)cc2)=NO1)N1CCC2(CC1)OCCO2 (stereo not drawn) across the screens: 1 | -0.16

(continued)
item	SMILES	CBX7 inh	CBX7 inh z-score
61	O=C(c1ccccc1)c1cc(Cl)ccc1NC(=O)C1COc2ccccc2O1 (stereo not drawn)	0.97	-0.82
62	Cc1cccc(C)c1-n1nnnc1C1(NCCc2c(C)[nH]c3c(Cl)c(Cl)ccc23)CCCCC1	0.67	-6.1
63	O=C(CN1CC(c2ccccc2)CC1=O)NCc1ccc2c(c1)OCO2 (stereo not drawn)	1	0.085
64	FC(F)(F)Oc1ccc(C2NCc3ccccc3-n3cccc32)cc1 (stereo not drawn)	0.98	-0.79
65	O=C(CN1CC(c2ccccc2)CC1=O)Nc1ccc(Br)cc1 (stereo not drawn)	0.98	-0.43
66	Cc1nn(-c2ccccc2)c2c1C(c1ccc(Cl)cc1Cl)SCC(=O)N2 (stereo not drawn)	0.83	-0.47
67	CCC1(C)CC(CCNCc2ccccc2O)(c2ccc(C)cc2)CCO1 (stereo not drawn)	1.1	1.1
68	CCC(C)n1[nH]c(=O)c2c1NC(=O)CSC2c1ccc(Cl)cc1Cl (stereo not drawn)	0.8	-0.55
69	O=c1c2ccccc2nc(/C=C/c2cccc3ccccc23)n1-c1ccccc1F	1	0.044
70	CCOC(=O)c1c(C)n(Cc2ccccc2)c2cc(Br)c(OC(C)=O)cc12	1	0.3
71	COc1ccccc1CCNCc1ccc2c(c1)OCO2	1	0.65
72	CC(=O)OCC#CCN1CCCCC1c1cccnc1 (stereo not drawn)	0.92	-1.7
73	Clc1ccccc1C1NCc2ccccc2-n2cccc21 (stereo not drawn)	0.83	-2.8
74	O=C(Nc1ccc(Br)cc1C(=O)c1ccccc1Cl)c1cccc(C(F)(F)F)c1	1.3	0.78
75	COc1ccccc1N1CCN(CCc2ccncc2)CC1	1.1	0.32

Retrieved one by one from above:
item	SMILES	CBX7 inh	CBX7 inh z-score
43	CCn1cc(C(=O)N2CC3CC(C2)c2cccc(=O)n2C3)c(=O)c2ccc(C)nc21 (stereo not drawn)	1.1	0.76
75	COc1ccccc1N1CCN(CCc2ccncc2)CC1	1.1	0.32

Next section:
item	SMILES	CBX7 inh	CBX7 inh z-score
76	C#CC(C)(C)NC1(c2nnnn2-c2c(C)cccc2C)CCCCC1	1	0.74
77	COc1cccc(-c2nn(C)c3sc(C(=O)N4CCC5(CC4)OCCO5)cc23)c1	1	0.048
78	Cc1cccc(-n2c(/C=C/c3ccc(Cl)cc3)nc3ccccc3c2=O)c1	1	0.19
79	CCC(C)C1N=C(c2ccccc2Cl)c2cc(Cl)ccc2N(CC(=O)NCC2CCCO2)C1=O (stereo not drawn)	0.95	-1.5
80	CCOc1ccc(C(=O)Nc2ccc(Cl)cc2C(=O)c2ccccc2)cc1	0.94	-1.4
81	O=C1CN(O)C(c2ccccc2Cl)=c2cc(Br)ccc2=N1	0.95	-0.55
82	Cc1ccc(NC(=O)CN2C(=O)C(C)N=C(c3ccccc3F)c3cc(Cl)ccc32)c(C)c1 (stereo not drawn)	0.95	-0.81
83	COc1ccc2[nH]c(C)c(CCNCc3ccccc3F)c2c1	0.59	-7.4
84	O=c1c2ccccc2nc(/C=C\c2ccccc2F)n1-c1cccc(F)c1	1	-0.012
85	COc1ccc(CCNCc2cccc(Cl)c2)cc1OC	0.85	-5.5
86	COc1cc(NC(=O)CN2C(=O)C(C)N=C(c3ccccc3)c3ccccc32)cc(OC)c1 (stereo not drawn)	1.1	0.81
87	CCOc1ccc(-c2nc(CSCC(=O)N3CCC4(CC3)OCCO4)c(C)o2)cc1	0.93	-0.9
88	COc1ccccc1-n1c(/C=C/c2ccc(N(C)C)cc2)nc2ccccc2c1=O	0.64	-5.6
89	CCc1cccc(NC(=O)CN2C(=O)CN=C(c3ccccc3Cl)c3cc(Cl)ccc32)c1	0.94	-1.6
90	COc1ccc(-n2nnnc2C2(NCCc3c(C)[nH]c4ccccc34)CCCCC2)cc1	0.55	-8.2

(more compounds)
item	SMILES	CBX7 inh	CBX7 inh z-score
91	Cc1ccc2c(c1)[C@@H]1CN(C)CC[C@@H]1N2C(=O)C1CCCC1	0.99	-0.091
92	COc1cc2c(cc1OC)-c1c(OC)c(OC)cc3c1C(C2)N(C)CC3 (stereo not drawn)	0.88	-1.9
93	CC1N=C(c2ccccc2)c2ccccc2N(CC(=O)Nc2cccc(Cl)c2)C1=O (stereo not drawn)	1.1	0.56
94	CCc1ccc(NC(=O)CN2C(=O)CN=C(c3ccccc3Cl)c3cc(Cl)ccc32)cc1	0.83	-4.8
95	COc1ccc2oc3c(c2c1)NC(=O)CN=C3c1ccc(F)cc1	0.99	-0.3
96	CCOC(=O)C1(c2ccccc2)CCN(Cc2ccc(C(=O)O)cc2)CC1	1	0.23
97	Cc1c(Cl)cccc1NC(=O)CN1C(=O)C(C)N=C(c2ccccc2)c2ccccc21 (stereo not drawn)	1.1	0.38
98	CCCCc1ncc(CNCCc2c(C)[nH]c3ccc(OC)cc23)[nH]1	0.99	-0.01
99	O=C1CN=C(c2ccccc2)c2oc3ccc(Br)cc3c2N1	0.98	-0.91
100	O=C(O)CN1C(=O)CN=C(c2ccccc2)c2cc(Cl)ccc21	1.1	0.96
101	CCCCc1nc2ccccc2c(=O)n1-c1ccc(C)cc1	0.89	-0.43
102	CCOC(=O)C1(c2ccccc2)CCN(Cc2cccc(C(N)=O)c2)CC1	0.87	-1.8
103	COc1cccc(/C=C/c2nc3ccccc3c(=O)n2-c2ccc(Cl)cc2)c1OC	1	-0.11
104	COCc1cc(C2SCC(=O)Nc3c2c(-c2ccccc2)nn3-c2ccccc2)ccc1OC (stereo not drawn)	0.75	-2.9
105	COc1ccc2nc(NC(=O)CCc3nc(C4=CCN(C)CC4)no3)sc2c1	0.97	-1.2

Continuation.
item	SMILES	CBX7 inh	CBX7 inh z-score
106	COc1cccc(/C=C/c2nc3ccccc3c(=O)n2-c2ccc(Br)c(C)c2)c1	1	0.35
107	Cc1ccc(CN2CCN(CC(=O)N3CCC4(CC3)OCCO4)C2=O)cc1	0.94	-1.1
108	Cc1cccc(-n2c(/C=C/c3c[nH]c4ccccc34)nc3ccccc3c2=O)c1	0.85	-1.6
109	CNC1(c2nnnn2-c2ccc(Cl)cc2)CCCCC1	1	0.11

Source: PubChem (several laboratories)
